# Sa growth 42C – S. aureus growth inhibition; S. aureus RN4220 growth, OD600, 20 h, 42 °C; hits give low values; relative growth, % (no concentration beside the values); 170,000 tested, 0.53% active;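 active means growth at 42 °C up to 50% and 20 or more points under that at 30 °C, or under 10% at both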;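 further: 300 nL library stock went into each well; scaled to the means of positive and negative controls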
# HCMV UL50-53 inh – inhibitors of HCMV UL50-UL53 nuclear egress complex interaction | HTRF UL50-UL53 interaction, normalized percent inhibition | inhibition, % (concentration not given with the values) | 190,000 tested, 0.15% active;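 active means both replicates at 50% or more, plus weaker picks with an unusually low signal ratio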;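 further: stock transfer was 100 nL into about 20 µL; 0% = negative control wells and 100% = wells with untagged competitor protein; inactives centre near -12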
# GIV-Gai inh – GIV-Galpha-i interaction inhibition. Galpha-i3/FITC-GIV peptide fluorescence polarization, 90 min; hits give low values; scaled: aluminum fluoride 0%, vehicle 100%. AID 1224905. 210,000 tested, 0.42% active. percent of control (FP), % (concentration not given with the values). P08753;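 active means replicate mean at 85% of control or lower, very high polarization wells dropped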;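 further: wells of about 15 µL received 100 nL stock; the first replicate is given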
# Target sequence (P08753 whole entry, looked up): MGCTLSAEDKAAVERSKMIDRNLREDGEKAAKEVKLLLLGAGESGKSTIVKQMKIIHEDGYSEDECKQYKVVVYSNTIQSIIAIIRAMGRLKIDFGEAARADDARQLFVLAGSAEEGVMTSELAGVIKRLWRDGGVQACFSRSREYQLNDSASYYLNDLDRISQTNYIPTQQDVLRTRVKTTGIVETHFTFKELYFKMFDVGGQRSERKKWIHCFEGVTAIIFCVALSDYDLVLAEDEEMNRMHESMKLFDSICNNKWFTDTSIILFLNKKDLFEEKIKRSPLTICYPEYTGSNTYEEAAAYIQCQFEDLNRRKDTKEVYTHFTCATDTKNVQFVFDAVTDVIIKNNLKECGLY
# Sa growth 42C second temp – recorded beside Sa growth 42C, whose call it bears; relative growth, %; measured here: growth at 30 °C;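 optical density after 20 h as mean of two plates; 100% = untreated growth and lower means inhibition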
# The depositor's hits bear a star; x = not tested or not shown; & = joins results of further samples.
compound	Sa growth 42C	Sa growth 42C second temp	HCMV UL50-53 inh	GIV-Gai inh
O=C(CSn1nnnc1-c1ccccc1)c1ccccc1	133	95	-6	x
Cc1ccccc1Cn1nnc2c(=O)[nH]c(C3CCCN(C(=O)c4ccc(C(C)(C)C)cc4)C3)nc21 (configuration not stated)	53	31	-2	104
CC(C)(C)OC(=O)N1CCC(O)CC1	120	85	x	104
O=c1[nH]nc(-c2ccccc2)o1	95	90	-28	101
CCc1c(C)nc2ncnn2c1Sc1ccc(NS(=O)(=O)c2ccc(Br)cc2)cc1	x	x	-30	102
O=C1CC(c2ccccc2)C(C(=O)O)N1 (configuration not stated)	89	83	-2	100
FC(F)(F)c1ccc(-n2ccnc2)cc1	96	80	30	100
O=C(Cn1c(=O)cnc2ccccc21)NCC1CCCO1 (configuration not stated)	110	95	16	x
CC(C)(C)c1csc(-c2ccc(-c3csnn3)cc2)n1	89	113	0	98
COc1ccc(N2CCN(C(=O)Cc3c(C(=O)O)n(C)c4ccccc34)CC2)cc1	99	93	-13	102
CCCc1cc(=O)[nH]c(SCC(=O)N2c3ccccc3Sc3ccccc32)n1	64	58	-11	x
C=CCSc1nc2c(cnn2-c2ccc(C)cc2)c(=O)[nH]1	110	98	-4	110
COc1ccc(C2=NC3(CCCCC3)N(CC(=O)Nc3ccc(C)c(C)c3)C2=O)cc1	x	x	-25	104
CSc1sc(C(=O)NN)cc1C#N	85	64	-80	111
CCn1c(SCC(=O)N2CCOCC2)nc2ccc(I)cc2c1=O	98	100	19	105
S=C(NCCSCc1ccco1)NC1CCCCC1	106	90	-14	x
O=S(=O)(NC1COc2ccc(Br)cc2C1)c1ccc(C2CCCCC2)cc1 (configuration not stated)	x	x	-3	103
Cc1ccc(C)c(NC(=O)CSc2nnc(C)n3c2cc2occc23)c1	109	91	x	106
Cc1ccc(C)c(NC(=O)Cn2ccn(-c3ccc(F)cc3)c(=O)c2=O)c1	95	88	-3	101
Cc1ccc2oc(=O)c3cc(C(=O)NCCc4ccsc4)sc3c2c1	95	90	7	103
COc1cc(C2CC(=O)N(c3ccc(C)c(Cl)c3)C3=C2C(=O)OC3)cc(OC)c1OC (configuration not stated)	113	90	9	107
Oc1ccc(C=Nc2ccccc2-c2nc3ccccc3[nH]2)c(O)c1	110	92	-16	x
COc1cccc(NC(=O)c2oc3ccccc3c2NC(=O)Cc2cccc(C)c2)c1	118	91	3	106
CC(C)n1cnc(S(=O)(=O)N2CCCC(C(=O)Nc3nccs3)C2)c1 (configuration not stated)	x	x	-19	102
COc1cc(OC)cc(C(=O)Nc2nc(CC(=O)Nc3ccc(F)c(Cl)c3)cs2)c1	x	x	-23	106
O=C(CSc1nc2ccccc2nc1Cc1ccc(Cl)cc1)N1CCc2ccccc21	94	89	x	96
COc1ccc(CCCc2nnc(SCC(=O)Nc3ccc(Cl)cc3)o2)cc1	113	85	-21	104
O=c1c2cccnc2nc(SCc2cc(=O)n3ccccc3n2)n1CC1CCCO1 (configuration not stated)	x	x	-30	98
CCOc1ccc(Cc2c[nH]c(=O)[nH]c2=O)cc1	82	90	-7	100
CC1CCN(c2ccc(NC(=O)c3ccccc3Cl)c(C(=O)O)c2)CC1	x	x	11	102

# Continued (six carried over from the part before).
compound	Sa growth 42C	Sa growth 42C second temp	HCMV UL50-53 inh	GIV-Gai inh
COc1cc(OC)cc(C(=O)Nc2nc(CC(=O)Nc3ccc(F)c(Cl)c3)cs2)c1	x	x	-23	106
O=C(CSc1nc2ccccc2nc1Cc1ccc(Cl)cc1)N1CCc2ccccc21	94	89	x	96
COc1ccc(CCCc2nnc(SCC(=O)Nc3ccc(Cl)cc3)o2)cc1	113	85	-21	104
O=c1c2cccnc2nc(SCc2cc(=O)n3ccccc3n2)n1CC1CCCO1 (configuration not stated)	x	x	-30	98
CCOc1ccc(Cc2c[nH]c(=O)[nH]c2=O)cc1	82	90	-7	100
CC1CCN(c2ccc(NC(=O)c3ccccc3Cl)c(C(=O)O)c2)CC1	x	x	11	102
CCCCOc1ccc(C(=O)CCN2CCCCC2)cc1	96	84	-20&-17&-18	x
CCc1cccc(NC(=O)C(NC(=O)C2CCCCC2)C(C)C)c1 (configuration not stated)	79	88	-27	99
N#Cc1ccccc1Cn1c(=O)n(Cc2ccc(C(=O)NC3CCN(Cc4ccccc4)CC3)cc2)c(=O)c2ccccc21	101	90	7	100
CN1C(=O)CC(NCCc2ccc(S(N)(=O)=O)cc2)C1=O (configuration not stated)	110	108	-21	107
CCN(CCCNC(=O)c1cc2c(=O)n(CC)c3ccccc3c2s1)c1cccc(C)c1	101	83	-4	103
CN1CCN(c2ccc(NC(=O)C3CCC3)c(C(=O)O)c2)CC1	x	x	-29	99
Nc1nnc2c(n1)[nH]c1ccccc12	98	82	-53	106
C=CCSc1n[nH]c(-c2ccc(C(F)(F)F)cc2)n1	79	64	-10	102
CN1C(=O)SC(N(CC(N)=O)c2ccccc2)C1=O (configuration not stated)	94	59	1	97
CCCC(=O)Nc1sc(C)c(C)c1C#N	84	92	-25	100
Cc1ccc(Oc2cc(C#N)c3ccccc3n2)cc1C	101	83	-21	x
Cc1cccc(NC(=O)c2cc(=O)[nH]c3ccccc23)c1	95	87	-16	x
COC(=O)c1ccc(C2SCC(=O)N2CCC(C)C)cc1 (configuration not stated)	103	81	-32	x
O=C(CN1C(=O)COc2ccc(C(=O)N3CCCC3)cc21)N1CCCCC1	x	x	-23	101
CCOC(=O)c1oc2ccc(S(=O)(=O)N3CCOCC3)cc2c1C	93	82	x	103
CC(=O)Nc1nonc1-c1nnc(SCc2ccc(C)cc2)n1C	81	91	5	98
O=C(Nc1nc2ccccc2s1)C(F)(F)F	84	88	7	x
CCc1ccc(Oc2c(C(F)(F)F)oc3c(CN4CCN(C)CC4)c(O)ccc3c2=O)cc1	108	93	-1	99
N#Cc1ccc(OCC(=O)c2ccc3c(c2)OCO3)cc1	95	100	1	x
CC(C)(C)c1ccc(C(=O)Nc2ccc3c(c2)NC(=O)CO3)cc1	x	x	-8	106
CC(=O)Oc1ccccc1C(=O)N1CC(C)CC(C)C1 (configuration not stated)	85	94	-14	x
CCc1ccc(N(Cc2cc(=O)n3ccccc3n2)C2=NC3CS(=O)(=O)CC3S2)cc1 (configuration not stated)	92	82	-42	99
Cc1cc(C(Nc2ccccn2)c2ccccc2)c(NC(=O)c2ccccc2)s1 (configuration not stated)	x	x	-4	106
Cc1ccc(NC(=O)/C(C#N)=C/c2cn(CC(=O)NCc3ccco3)c3ccccc23)c(C)c1	88	97	-35	102
Cc1csc(SCC(=O)N(C)Cc2ccccc2C)n1	99	98	-18	x
Cc1nc2ccccc2n1S(=O)(=O)c1cccc(C(F)(F)F)c1	91	91	-5	x
COc1ccc(C(=O)c2cn(Cc3ccc(F)cc3)c3c(F)cc(F)cc3c2=O)cc1	90	86	6	96
CCC(C)NS(=O)(=O)c1ccc(-c2n[nH]c(C)c2C)o1 (configuration not stated)	x	x	-16	106
O=C(NCc1cccnc1)c1ccc(CSc2nc3cccnc3n2Cc2ccccc2)cc1	x	x	-40	107
Cc1ccc(S(=O)(=O)n2nc(C)c(S(=O)(=O)N3CCCCC3)c2C)cc1	87	89	x	102
CCc1ccc(NC(=O)C(CC)n2nc(-c3ccccc3)ccc2=O)cc1 (configuration not stated)	x	x	-23	103
CCOc1ccc(C(=O)Cc2ccc3oc(C(=O)O)cc3c2)c(O)c1	94	94	-10	x
S=C(SCc1ccc(CSC(=S)N2CCOCC2)cc1)N1CCOCC1	82	92	2	x
O=C(c1ccc2c(c1)N(Cc1cccc(Cl)c1)C(=O)c1ccccc1S2=O)N1CCC(Cc2ccccc2)CC1 (configuration not stated)	137	103	x	111
CCOC(=O)c1c(C)[nH]c(C)c1S(=O)(=O)NCC(=O)Nc1ccc(Cl)c(C(F)(F)F)c1	100	90	-13	104
Cn1nnnc1SCC(=O)Nc1ccc2nc(SCC(=O)c3ccc(Cl)cc3)sc2c1	x	x	-8	106
O=C(O)CCN1CCn2c1nc1ccccc12	104	92	-10	x
CN(C)C(=O)Cn1c(-c2ccc(F)cc2)ccc(C#N)c1=O	80	84	-17	101
Cc1cc(C)c2c(n1)SCC(=O)N2CCCC(=O)NCc1cccc(Br)c1	82	75	3	101
CCC1CCCCN1CCCNC(=O)c1cn(CC)c2ccc(S(=O)(=O)N(C)C3CCCCC3)cc2c1=O (configuration not stated)	84	86	-30	108
Cc1cccc(-c2nnc(SCC(=O)Nc3ccc(C)c(C)c3)o2)c1	109	85	-15	96
O=C(O)C1Cc2[nH]cnc2C(c2ccc(F)cc2)N1 (configuration not stated)	95	80	-34	101
O=C(CN1c2ccccc2S(=O)(=O)c2ccccc21)Nc1cccnc1	95	87	-3	104
O=C1c2ccccc2C(=O)N1CCc1nc(-c2cccnc2)no1	105	104	-42	95
Cc1oc(C(C)(C)C)cc1C(N)=O	111	89	3	107
CCCCCCn1c(=O)c2c(nc3n2CCS3)n(C)c1=O	x	x	-14	104
COc1ccc(N2CCN(CCCNC(=O)c3c(-c4ccncc4)noc3C)CC2)cc1	x	x	3	98
Cc1nc2c(-c3ccccc3)c(C)nn2c(C)c1CC(=O)NCCCN1CCCC1=O	100	85	-4	105
CCOc1ccc(CCNS(=O)(=O)c2cc(Br)cc3c2N(C(C)=O)CC3)cc1OCC	74	86	x	105
COCCCn1c(=O)c2sccc2n2c(CCCC(=O)NCc3ccc(F)cc3)nnc12	118	91	x	106
O=C(O)/C=C/C(=O)Nc1cccc(NC(=O)/C=C/C(=O)O)c1	63	59	-10	101
Cc1cccc(NC(=O)N2CCC(CN3CCCCCC3)CC2)c1C	102	91	x	106
CCNc1nc(NCC)n2c(SCC(=O)c3ccc(C(C)(C)C)cc3)nnc2n1	x	x	-24	101
Cc1c(C(=O)Cc2ccccc2)n(C)c2ccccc12	120	89	-21	x
COc1ccc2[nH]c(=O)c(C(=O)O)cc2c1	85	94	x	101
S=C(Nc1ccccc1)N1CCc2ccccc21	105	97	-2	95
CCC(=O)N(c1nnc(SCc2csc(N(C(C)=O)c3ccccc3)n2)s1)C1CC1	105	94	-8	x
CC(=O)Nc1ccc(C)cc1-c1nnc(SC(C)C(=O)Nc2c(C)cc(C)cc2C)[nH]c1=O (configuration not stated)	x	x	-12	100
CC1CCCN(S(=O)(=O)c2ccc(S(=O)(=O)N3CCN(C=O)CC3)cc2)C1 (configuration not stated)	95	111	9	100
CC(C)c1ccc(C(C)N)cc1 (configuration not stated)	84	75	-9	x

# New compounds follow
compound	Sa growth 42C	Sa growth 42C second temp	HCMV UL50-53 inh	GIV-Gai inh
N#CC(C#N)=C(N1CCOCC1)C(F)(F)F	106	73	-54	102
COCC(C)N=C1NN=C(c2cc(C)n(CC3COc4ccccc4O3)c2C)CS1 (configuration not stated)	92	96	-8	x
O=C(O)C1Cc2ccccc2CN1C(=O)c1ccco1 (configuration not stated)	102	86	-16	x
CC1Cc2cc(S(=O)(=O)Nc3ccccc3N3CCN(C)CC3)ccc2N1C(=O)C1CC1 (configuration not stated)	95	69	-33	103
CC(C)CCNC(=O)c1cnn2c(C(F)(F)F)cc(-c3ccco3)nc12	94	69	x	104
CCOC(=O)c1ccccc1NS(=O)(=O)c1ccc(N2CCCCS2(=O)=O)cc1	111	78	x	98
CN1CCN(CC(O)COCCC23CC4CC(CC(C4)C2)C3)CC1 (configuration not stated)	80	89	-4	x
CC(Nc1oc(-c2ccc(COc3ccc(Cl)cc3)o2)nc1C#N)c1ccccc1 (configuration not stated)	108	96	-5	99
CCS(=O)(=O)c1ccc(-c2ccc(NC(=O)C3CCCC3)cc2)nn1	x	x	-4	99
O=C(c1ccc2c(c1)OCCCO2)c1cccs1	103	85	-7	x
CN(C)c1nc(-c2ccccc2)nc(Nc2cccc(C(F)(F)F)c2)c1C#N	96	87	-14	105
O=c1[nH]ccn(-c2ccc(Cl)cc2)c1=O	x	x	-67	101
COC(=O)c1cc(C(=O)Nc2cccc(C(=O)O)c2)c(=O)[nH]c1C	x	x	-21	106
NC(N)=Nc1ccc(Cl)cc1	90	93	-22&-3	x
C[N+]1(CCOc2ccccc2)Cc2ccccc2C1	121	87	x	106
c1ccc2c(c1)NCCS2	94	87	-2	106
OC(COCc1cccs1)CN1CCCCCC1 (configuration not stated)	95	85	-33	x
COc1cccc(N2CC(NC(=O)/C=C\c3ccc4c(c3)OCO4)CC2=O)c1 (configuration not stated)	120	92	x	96
COc1ccc(-c2ccc(CNCC3CCNCC3)o2)cc1Cl	x	x	-30	107
CCCNc1sc(S(C)(=O)=O)nc1S(=O)(=O)c1ccc(Cl)cc1	103	101	-8	108
Cc1coc2cc3oc(=O)c(-c4ccccc4)cc3cc12	89	99	x	108
COC(=O)c1ccccc1NC(=O)CSc1c2c(nc3ccc(Cl)cc13)CCCC2	100	91	-30	103
COc1ccc(S(=O)(=O)N2CCN=C2N2CCN(c3cccc(Cl)c3)CC2)cc1OC	x	x	15	102
